High-throughput results as filed in PubChem.
ClpP mod: qHTS Assay for Activators of ClpP. ATP-dependent Clp protease proteolytic subunit (Bacillus subtilis (strain 168)), P80244. purified B. subtilis ClpP, FRET peptide cleavage, 20 min. Potency, µM (series often up to 57.5 µM), for inactives: at the highest dose activity change, negative = active. 340,000 compounds, 1.9% hits; active = well fitted falling curve with a large enough effect; inconclusive = small, poorly fitted or top-dose-only effect; inactive = no such curve, though single readings can be large or run the other way; further: potency means the concentration at half of the fitted maximal effect; the source files actives as falling curves though it sought activators and does not explain the sign; nearly all actives have a fitted effect of over 65% in size; many hits overshoot -100%
Target sequence (P80244 whole entry, looked up): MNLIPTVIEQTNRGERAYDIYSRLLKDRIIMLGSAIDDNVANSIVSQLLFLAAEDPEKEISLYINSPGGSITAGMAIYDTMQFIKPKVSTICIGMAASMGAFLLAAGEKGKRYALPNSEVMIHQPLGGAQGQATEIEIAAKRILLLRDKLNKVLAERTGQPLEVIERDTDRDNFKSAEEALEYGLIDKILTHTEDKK
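Buffer: 100 mM Tris/HCl pH8, 100 mM KCl, 0.05% low protease BSA, 2.5% glycerol, 0.01% Tween-20. ClpP 10 microg/mL final; 20 min RT; delta FRET normalized to ADEP and DMSO controls.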
Menin MLL FP FL: inhibitors of human menin-MLL interaction, wild-type MLL peptide | Fluorescence polarization, fluorescein-MLL peptide displacement from menin | FP activity change, % at 61.4 µM | 290,000 tested, under 10 active; inconclusive = falling polarisation curve, or a change in total fluorescence; inactive = total fluorescence flat and polarisation flat or rising; no compound was filed as active; the % refers to the polarisation; negative = inhibition;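 further: % of control where 0% means no effect; inhibitors lower the polarisation; unlabelled MLL peptide was the positive control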
gsp agonist: activates gsp, the McCune-Albright syndrome mutation; gsp mutant cells, cAMP HTRF, 30 min; control for the full effect not named in the record; Potency, µM (series often up to 76.9 µM), for inactives: top-dose activation (cAMP increase), most hits filed as activators; 340,000 compounds, 0.13% hits; active = well fitted activation curve with a large enough effect; inconclusive = small, poorly fitted or top-dose-only effect, or another doubt; inactive = no such curve, though single readings can be large or run the other way; cell line not stated here;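 further: phosphodiesterase inhibitor Ro 20-1724 added with compounds to block cAMP breakdown; potency means the concentration at half of the fitted maximal effect; nearly all actives have a fitted effect of over 60% in size; about a fifth of the inactives were tested at one dose only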
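Cells stably selected in G418 were plated at 2000/well, grown 16-24 hr, then given compounds in DMSO with the PDE inhibitor […] (300 uM solution added) for 30 min at 37C; cAMP was read by HTRF.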
gsp antag: antagonists of gsp mutant (McCune-Albright syndrome); 340,000 compounds, 0.4% hits; AID 624288; Potency, µM (doses to about 76.9 µM), for the others: top-dose activity change, negative = inhibition, hits mostly inhibitors; gsp-mutant cells, cAMP HTRF, 30 min; control for the full effect not named in the record; active = falling curve of any shape with a large fitted effect; inconclusive = falling curve, mostly with a smaller effect; inactive = flat or rising curve; cell line not stated here;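 further: intracellular cAMP measured with PDE inhibitor Ro 20-1724 present during compound exposure; potency means the concentration at half of the fitted maximal effect; on the % scale 0 is the no-effect control and ±100 the full control effect; nearly all actives have a fitted effect of over 65% in size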
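HTRF cAMP measurement after 30 min RT detection following 30 min, 37C compound treatment alongside […] (added as 300 uM solution) in G418-selected cells seeded at 2000/well and grown 16–24 h.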
TRPV1 PAM: human TRPV1 potentiation; TRPV1-expressing cells, Fluo-8 calcium influx, capsaicin EC20 potentiation; host cell line not named in the record; control for the full effect not named in the record; Q8NER1; 320,000 compounds, 0.02% hits; potentiation, % at 8.33 µM; active means potentiation above 80%; inconclusive means 30% to 80%; inactive means below 30%; further: 0% is about no effect
Target sequence (Q8NER1 whole entry, looked up): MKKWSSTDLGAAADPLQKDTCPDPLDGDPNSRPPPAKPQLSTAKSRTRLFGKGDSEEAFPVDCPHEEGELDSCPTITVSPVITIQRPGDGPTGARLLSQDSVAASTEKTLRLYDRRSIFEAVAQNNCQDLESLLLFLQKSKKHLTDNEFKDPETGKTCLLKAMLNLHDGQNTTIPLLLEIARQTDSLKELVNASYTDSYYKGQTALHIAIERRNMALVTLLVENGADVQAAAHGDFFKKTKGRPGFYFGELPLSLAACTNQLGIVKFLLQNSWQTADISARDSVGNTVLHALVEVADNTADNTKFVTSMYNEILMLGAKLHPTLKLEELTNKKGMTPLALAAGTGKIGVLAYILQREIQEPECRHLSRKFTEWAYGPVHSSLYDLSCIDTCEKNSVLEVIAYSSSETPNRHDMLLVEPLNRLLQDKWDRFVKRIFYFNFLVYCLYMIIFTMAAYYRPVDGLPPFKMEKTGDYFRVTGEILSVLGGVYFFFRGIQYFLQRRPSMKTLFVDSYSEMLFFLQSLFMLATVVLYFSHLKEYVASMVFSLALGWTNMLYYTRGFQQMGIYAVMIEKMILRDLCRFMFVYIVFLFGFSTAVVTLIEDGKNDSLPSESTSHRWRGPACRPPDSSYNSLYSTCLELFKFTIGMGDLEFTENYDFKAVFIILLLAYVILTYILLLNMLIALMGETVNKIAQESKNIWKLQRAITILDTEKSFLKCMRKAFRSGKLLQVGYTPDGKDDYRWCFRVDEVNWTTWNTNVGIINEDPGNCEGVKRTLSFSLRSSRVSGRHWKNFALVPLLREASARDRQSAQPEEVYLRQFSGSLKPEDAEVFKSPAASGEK
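TRPV1-expressing cells were cultured overnight at 35.5C and loaded with Fluo-8 calcium dye for 40 to 90 min at room temperature. After a 10 s baseline, compound was added and calcium influx was read kinetically for 3 min (ex 480/em 520 nm).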
CtBP-E1A inh: CtBP/E1A binding inhibition | AlphaScreen GST-E1A/His-CtBP binding, 1536-well; stronger effect = lower value; control for the full effect not named in the record | activity change, % (concentration not given with the values) | 340,000 compounds, 0.49% hits | AID 651724; in the data active means activity change below about -65%; inconclusive means about -30% to -65%; inactive means above about -30%; further: on the % scale 0 is the no-effect control and ±100 the full control effect
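Protein mix (5X: 125 nM each GST-E1A, His-CtBP) was incubated with pinned compound 2 h at 37 deg C in dark, in 50 mM Tris pH 8.0 buffer with 300 mM NaCl. Glutathione donor and nickel acceptor beads followed; AlphaScreen signal read after 1 h.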
Sfp inh: inhibitors of Bacillus subtilis Sfp phosphopantetheinyl transferase | Q9F4F7 | Biochemical Sfp PPTase activity, qHTS | Potency, µM, for the others: max response, negative = inhibition, most hits filed as inhibitors | 310,000 compounds, 3.5% hits; active means well fitted inhibition curve with a large enough effect; inconclusive means small, poorly fitted or top-dose-only effect, or another doubt; inactive means no such curve, though single readings can be large or run the other way;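 further: the enzyme is Sfp with the accession as filed and its product quenches rhodamine fluorescence; potency means the concentration at half of the fitted maximal effect; 0% = enzyme reaction without inhibitor and -100% = no enzyme wells; top concentration of the series not given in the record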
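Compounds were incubated with enzyme (final 15 nM) for 15 min at room temperature before substrate addition started the reaction. Fluorescence at 525 nm excitation, 598 nm emission was recorded immediately and after 30 minutes.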
Starred values were filed as active, the others as inactive; & = joins results of further samples; [ ] = remark or other dose. This is a random part of the collection; about 5.3% have a hit in one of these screens.

Screening CN(C(=O)Cn1cc(C(F)(F)F)ccc1=O)c1c(N)n(Cc2ccccc2)c(=O)[nH]c1=O returned Menin MLL FP FL 1.7, gsp agonist 3%[15.4 µM], gsp antag 9%, TRPV1 PAM 12, CtBP-E1A inh 4 and Sfp inh 0%.
Screening NC(=S)NN=C1CCCCC12CCCC2 returned gsp agonist 9%, gsp antag 10% and CtBP-E1A inh 3.
Screening COc1ccc(N2C(=O)c3ccccc3C2=O)cc1 returned Menin MLL FP FL -3.6, gsp agonist -7%[15.4 µM], gsp antag 5%, TRPV1 PAM 3, CtBP-E1A inh 0 and Sfp inh 12%.
For COc1ccc(/C(O)=C2\C(=O)C(=O)N(Cc3ccco3)C2c2cc(OC)ccc2OC)cc1 (centres undefined) the results were ClpP mod -0.1%, Menin MLL FP FL 2.5, gsp agonist 29%, gsp antag -10%, TRPV1 PAM 11, CtBP-E1A inh -2 and Sfp inh inconclusive.
For O=S(=O)(c1ccc2[nH]ccc2c1)N1CCCCCC1 the results were ClpP mod -5.0%, gsp agonist 3%, gsp antag 1%, TRPV1 PAM -6 and Sfp inh 10%.
Screening O=C(Nc1cccc(Cl)c1Cl)c1ccncc1 returned ClpP mod 0.2%, Menin MLL FP FL 9.7, gsp agonist -10%, gsp antag 1%, TRPV1 PAM 5, CtBP-E1A inh 3 and Sfp inh 1%.
For CC1=Nc2ccccc2/C1=C/c1sc(=O)n(CC(=O)N2CCCC2)c1O the results were ClpP mod 1.2%, Menin MLL FP FL 1.1, gsp agonist -7%, gsp antag 9%, TRPV1 PAM 7, CtBP-E1A inh 22 and Sfp inh 16%.
`CC1Cc2cc(/C(O)=C3/C(=O)C(=O)N(CCN4CCOCC4)C3c3cccc(O)c3)ccc2O1` (centres undefined) gave ClpP mod 0.4%, Menin MLL FP FL 4.0, gsp agonist -1%, gsp antag 6%, TRPV1 PAM 0, CtBP-E1A inh 14 and Sfp inh 7%.
Cc1ccc(NC(=O)c2cc(-c3ccco3)on2)cc1C was read as ClpP mod 97%, Menin MLL FP FL 5.9, gsp agonist inconclusive, gsp antag 7%, TRPV1 PAM 0, CtBP-E1A inh 6 and Sfp inh inconclusive.
`CC(Sc1ccc2ccccc2n1)C(=O)O` (centres undefined) gave ClpP mod -1.8%, Menin MLL FP FL -0.9&-0.8, gsp agonist 133%[15.4 µM], gsp antag 16%, TRPV1 PAM 1&22, CtBP-E1A inh 1 and Sfp inh 21%&-21%.
`O=C(CSc1n[nH]c(=O)[nH]c1=O)Nc1ccc(C(=O)O)cc1` gave ClpP mod -2.3%, Menin MLL FP FL -6.9, gsp agonist 4%, gsp antag 12%, TRPV1 PAM 14 and Sfp inh inconclusive.
Screening O=C(CSc1nccc(-c2cccs2)n1)Nc1ccc(F)c(Cl)c1 returned ClpP mod -7.8%, Menin MLL FP FL 2.6, gsp agonist 26%, gsp antag inconclusive, TRPV1 PAM 14 and Sfp inh 11%.
Screening Cc1ccc(C(=O)COC(=O)CCN2C(=O)C3C4CC(C(Br)C4Br)C3C2=O)cc1 (centres undefined) returned ClpP mod 0.7%, Menin MLL FP FL 2.4, gsp agonist 0%, gsp antag -11%, TRPV1 PAM 0, CtBP-E1A inh 3 and Sfp inh 17%.
For COc1ccc(S(=O)(=O)N2CCC(N3CCN(c4ccccc4)CC3)CC2)cc1 the results were Menin MLL FP FL 0.8, TRPV1 PAM -10 and Sfp inh 13%.
Screening O=C1CC(c2cccc([N+](=O)[O-])c2)c2ccc3ccccc3c2N1 (centres undefined) returned ClpP mod -1.1%, Menin MLL FP FL 2.5, gsp agonist -15%, gsp antag 5%, TRPV1 PAM 2, CtBP-E1A inh -11 and Sfp inh -7%.
Screening COc1ccccc1Oc1ccc2c(c1)C(=O)N(CC(=O)O)C2=O returned ClpP mod -0.9%, Menin MLL FP FL 1.6, gsp agonist -1%[15.4 µM], gsp antag 6%, TRPV1 PAM -6, CtBP-E1A inh 5 and Sfp inh -15%.
Cc1ccc(NC(=O)Nc2cccc(C)n2)cc1 was read as ClpP mod 3.3%&1.6%, Menin MLL FP FL 4.2, gsp agonist 25%, gsp antag 0%, TRPV1 PAM 12 and Sfp inh 12%.
`Cc1ccc(CNC(=O)NCc2ccccc2)cc1` gave ClpP mod 1.9%, Menin MLL FP FL -0.3, gsp agonist -2%, gsp antag 13%, TRPV1 PAM -27 and Sfp inh 26%.
`Cc1ccc(/C=C/C(=O)NCc2ccco2)o1` gave Menin MLL FP FL 9.7, TRPV1 PAM -1 and Sfp inh 32µM*.
CCCCCCCCC/C(=N\O)c1ccccn1 was read as ClpP mod 0.3%, Menin MLL FP FL -0.6, gsp agonist 4%[15.4 µM], gsp antag 8%, TRPV1 PAM 4, CtBP-E1A inh 10 and Sfp inh -5%.
Screening O=C(NCCc1ccccc1F)C(=O)Nc1nccs1 returned ClpP mod 196%, Menin MLL FP FL 9.4, gsp agonist -1%, gsp antag 17%, TRPV1 PAM 4, CtBP-E1A inh -3 and Sfp inh 11%.
Cc1ccc2c(c1)N=C(c1ccc(F)cc1)CO2 was read as ClpP mod -10%, Menin MLL FP FL -0.2, gsp agonist 0%, gsp antag -8%, TRPV1 PAM 6, CtBP-E1A inh 9 and Sfp inh -12%.
COC(=O)C1=NN(c2ccccc2)C2(S1)S/C(=C\c1ccccc1)C(=O)N2c1ccccc1 (centres undefined) was read as ClpP mod 0.8%, Menin MLL FP FL 1.2, gsp agonist -2%, gsp antag -2%, TRPV1 PAM 20, CtBP-E1A inh -18 and Sfp inh 3%.
`COc1cc(S(=O)(=O)n2cnc(C)c2)ccc1Br` gave Menin MLL FP FL -0.8, gsp agonist inconclusive, gsp antag 17%, TRPV1 PAM -7, CtBP-E1A inh 5 and Sfp inh -3%.
CCCn1nc([N+](=O)[O-])c(C(C#N)c2nc3ccccc3s2)c(Cl)c1=O (centres undefined) was read as ClpP mod -1.9%, Menin MLL FP FL 3.5, gsp agonist 17%, gsp antag 32µM*, TRPV1 PAM 6, CtBP-E1A inh -25 and Sfp inh 17%.
For O=C(CN1CCCCCC1)Nc1cc(C(F)(F)F)ccc1Cl the results were ClpP mod -2.2%, Menin MLL FP FL 0.7, gsp agonist -6%[15.4 µM], gsp antag -22%, TRPV1 PAM 2, CtBP-E1A inh 11 and Sfp inh 6%.
For O=C(N/N=C/c1cccn1-c1ccc(O)cc1)c1cccc2ccccc12 the results were ClpP mod inconclusive, gsp agonist inconclusive, gsp antag 16%, TRPV1 PAM -3, CtBP-E1A inh -5 and Sfp inh 19%.
`CN(C)S(=O)(=O)c1cccc(NC(=O)COC(=O)COc2ccccc2[N+](=O)[O-])c1` gave ClpP mod 0.7%, Menin MLL FP FL -0.8, gsp agonist -17%[15.4 µM], gsp antag -1%, TRPV1 PAM 6, CtBP-E1A inh 6 and Sfp inh 14%.
For CCOc1ccc(NC(=O)N(CC(C)C)CC(C)C)cc1 the results were ClpP mod 0.5%, Menin MLL FP FL -1.3, gsp agonist inconclusive, gsp antag -20%, TRPV1 PAM inconclusive, CtBP-E1A inh 0 and Sfp inh 15%.
CN1CCN(c2nnc(-c3ccc(Cl)cc3)c3ccccc23)CC1 was read as ClpP mod 0.8%, Menin MLL FP FL -0.8, gsp agonist -24%, gsp antag 1%, TRPV1 PAM -1, CtBP-E1A inh 0 and Sfp inh -4%.

The final 2 compounds of the section above open the next one:
For CCOc1ccc(NC(=O)N(CC(C)C)CC(C)C)cc1 the results were ClpP mod 0.5%, Menin MLL FP FL -1.3, gsp agonist inconclusive, gsp antag -20%, TRPV1 PAM inconclusive, CtBP-E1A inh 0 and Sfp inh 15%.
CN1CCN(c2nnc(-c3ccc(Cl)cc3)c3ccccc23)CC1 was read as ClpP mod 0.8%, Menin MLL FP FL -0.8, gsp agonist -24%, gsp antag 1%, TRPV1 PAM -1, CtBP-E1A inh 0 and Sfp inh -4%.
O=C(Cc1cccc([N+](=O)[O-])c1)Nc1ccc(C(=O)N2CCCCC2)cc1 was read as ClpP mod 0.5%, gsp agonist inconclusive, gsp antag -4% and CtBP-E1A inh -1.
Screening O=C(Nc1cccc(C(F)(F)F)c1)C(=O)N1CCCCC1 returned Menin MLL FP FL 0.2, gsp agonist 19%, gsp antag 2%, TRPV1 PAM -13, CtBP-E1A inh -12 and Sfp inh 13%.
O=C(CN1C(=O)c2ccccc2C1=O)Nc1nnc(C2CCCO2)s1 (centres undefined) was read as ClpP mod -0.8%, Menin MLL FP FL -1.2, gsp agonist -40%[inhibitor], gsp antag 1%, TRPV1 PAM inconclusive, CtBP-E1A inh -24 and Sfp inh -13%.
Screening CC(=O)c1ccc(OCC(=O)Nc2ccccc2C(=O)NC2CC2)cc1 returned ClpP mod -2.2%, gsp agonist -1%[15.4 µM], gsp antag 28%, TRPV1 PAM 3, CtBP-E1A inh -6 and Sfp inh 0%.
For Cn1cc(CCNC(=O)C2CCC(=O)N(CCc3ccc(Cl)cc3)C2)cn1 (centres undefined) the results were ClpP mod -0.1%, Menin MLL FP FL -0.6, gsp agonist 13%, gsp antag 9%, TRPV1 PAM 14, CtBP-E1A inh 11 and Sfp inh 10%.
Cc1nn(-c2ccc(Cl)cc2)c(Cl)c1/C=N/NC(=O)c1ccc(NS(=O)(=O)c2cccs2)cc1 was read as ClpP mod -7.2%, gsp agonist inconclusive, gsp antag inconclusive and CtBP-E1A inh -15.
For C=CCn1c(=O)/c(=C2/Sc3cc(OC)ccc3N2C)s/c1=C1\C(=O)N(CC)C(=S)N1C the results were Menin MLL FP FL 9.2, TRPV1 PAM 5 and Sfp inh -6%.
For COc1ccc(NC(C)=O)cc1NC(=O)CN1CCN(S(=O)(=O)c2ccc(C(C)C)cc2)CC1 the results were ClpP mod -2.8%, Menin MLL FP FL 3.3, gsp agonist 2%, gsp antag -6%, TRPV1 PAM -10, CtBP-E1A inh 0 and Sfp inh 1%.
For COc1ccc(C)cc1NC(=O)CCN1CCN(c2ccccc2)CC1 the results were Menin MLL FP FL -4.2, gsp agonist 3%, gsp antag -8%, TRPV1 PAM 2, CtBP-E1A inh -18 and Sfp inh -2%.
